Screening data (PubChem BioAssay)
gsp antag = gsp mutant antagonism | 0.4% of 340,000 active | gsp-mutant cells, cAMP HTRF, 30 min; control for the full effect not named in the record | Potency, µM (series often up to 76.9 µM), for inactives: at the top dose activity change, negative = inhibition, actives largely listed as inhibitors | AID 624288; active = falling curve of any shape with a large fitted effect; inconclusive = falling curve, mostly with a smaller effect; inactive = flat or rising curve; cell line not stated here;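 also: intracellular cAMP measured with PDE inhibitor Ro 20-1724 present during compound exposure; potency is read from the fitted curve at half-maximal effect; % is scaled to controls: 0 for no effect and ±100 for the full control effect; nearly all actives have a fitted effect of over 65% in size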
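G418-selected cells were plated in DMEM/10% FBS for 16-24 h at 37C, then treated with compounds plus the PDE inhibitor […] (300 uM solution added) for 30 min at 37C. Intracellular cAMP was measured by HTRF after 30 min lysis at room temperature.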
TRPML1 agonist = activates the human TRPML1 channel | activation, % (no concentration beside the values) | TRPML1-expressing cells, Ca2+ dye fluorescence, FDSS; host cell line not named in the record; reference of the full effect not given here | 0.12% of 410,000 active | Q9GZU1; in the data active = activation above about 50%; inconclusive = about 30% to 50%; inactive = below about 30%; also: 0% is about no effect; the text of the record puts the active cut at 80%
Target sequence (Q9GZU1 whole entry, looked up): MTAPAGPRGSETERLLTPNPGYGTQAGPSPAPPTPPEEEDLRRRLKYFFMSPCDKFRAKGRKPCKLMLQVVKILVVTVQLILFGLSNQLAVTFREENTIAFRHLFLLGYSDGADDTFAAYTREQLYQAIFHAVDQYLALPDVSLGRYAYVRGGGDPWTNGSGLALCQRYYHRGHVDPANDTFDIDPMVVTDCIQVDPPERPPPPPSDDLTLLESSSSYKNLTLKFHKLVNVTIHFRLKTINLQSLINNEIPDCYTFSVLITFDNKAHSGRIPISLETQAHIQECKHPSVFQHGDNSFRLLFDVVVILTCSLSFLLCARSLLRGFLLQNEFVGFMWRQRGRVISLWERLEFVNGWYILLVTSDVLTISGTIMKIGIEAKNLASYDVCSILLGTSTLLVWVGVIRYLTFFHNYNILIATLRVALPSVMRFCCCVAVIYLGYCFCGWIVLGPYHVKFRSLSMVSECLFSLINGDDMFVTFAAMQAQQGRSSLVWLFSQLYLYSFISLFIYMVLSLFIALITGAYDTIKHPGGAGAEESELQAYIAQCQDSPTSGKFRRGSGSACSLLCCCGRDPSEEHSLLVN
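Calcium fluorescence on an FDSS kinetic reader gave the read-out. Tet-induced TRPML1-DL cells were plated overnight, dye-loaded (Ca8 with quencher, 45-90 min, room temperature, dark), then read 110 s after compound addition, and again 110 s after 4uM final 54-4 (EC80).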
TRPML1 blocker = human mucolipin-1 channel inhibition | TRPML1-inducible cells, Ca2+ dye fluorescence, FDSS; active compounds read low; inhibition of EC80 agonist-evoked calcium signal | AID 624415 | Q9GZU1 | activity change, negative = inhibition, % (test concentration not listed) | 0.02% of 390,000 active; in the data active means activity change below about -50%; inconclusive means about -30% to -50%; inactive means above about -30%;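 also: stimulus is agonist 54-4 at its EC80 concentration; % is scaled to controls: 0 for no effect and ±100 for the full control effect; compound concentration not given in the record; the text of the record puts the active cut at -80%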
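TRPML1-DL cells, Tet-induced overnight (~16 h, 37 °C) at 1,500 cells/well, were loaded with Ca8 no-wash dye plus quencher for 45-90 min at room temperature. Compounds were pinned during FDSS kinetic reading; agonist 54-4 at EC80 (4 uM final) then added.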
Menin MLL FP FL = displaces fluorescein MLL peptide from human menin | FP activity change, % at 61.4 µM | AID 1766 | 290,000 tested, under 10 active | Fluorescence polarization, fluorescein-MLL peptide displacement from menin; inconclusive = falling polarisation curve, or a change in total fluorescence; inactive = total fluorescence flat and polarisation flat or rising; no compound was filed as active; the % refers to the polarisation; negative = inhibition;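 also: % of control where 0% means no effect; inhibitors lower the polarisation; unlabelled MLL peptide was the positive control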
ClpP mod = qHTS Assay for Activators of ClpP; 1.9% of 340,000 active; Potency, µM (top dose mostly 57.5 µM), for the others: top-dose activity change, negative = active; purified B. subtilis ClpP, FRET peptide cleavage, 20 min; ATP-dependent Clp protease proteolytic subunit (Bacillus subtilis (strain 168)), P80244; active = well fitted falling curve with a large enough effect; inconclusive = small, poorly fitted or top-dose-only effect; inactive = no such curve, though single readings can be large or run the other way; also: potency is read from the fitted curve at half-maximal effect; the source files actives as falling curves though it sought activators and does not explain the sign; nearly all actives have a fitted effect of over 65% in size; many hits overshoot -100%
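ClpP 10 microg/mL final, pH 8 Tris/KCl buffer with BSA, glycerol, Tween-20; compound pinned in; FRET-FV substrate; RT 20 min; Ex320/Em430; ΔFRET vs ADEP 5.8 microM, DMSO, no enzyme.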
gsp agonist = agonists of gsp mutant (McCune-Albright syndrome); 0.13% of 340,000 active; Potency, µM (top dose mostly 76.9 µM), without a hit: at the highest dose activation (cAMP increase), hits mostly activators; gsp mutant cells, cAMP HTRF, 30 min; control for the full effect not named in the record; active = well fitted activation curve with a large enough effect; inconclusive = small, poorly fitted or top-dose-only effect, or another doubt; inactive = no such curve, though single readings can be large or run the other way; cell line not stated here;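 also: phosphodiesterase inhibitor Ro 20-1724 added with compounds to block cAMP breakdown; potency is read from the fitted curve at half-maximal effect; nearly all actives have a fitted effect of over 60% in size; about a fifth of the inactives were tested at one dose only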
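Cells in DMEM/10% FBS with G418 were pretreated with compounds in DMSO plus […] (300 uM stock) for 30 min at 37C. cAMP was measured by HTRF (cAMP-d2 plus anti-cAMP antibody-K) after 30 min at room temperature.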
* = called active by the depositor; ? = inconclusive; . = no result given; [ ] = another dose, or the depositor's remark.

Structure,gsp antag,TRPML1 agonist,TRPML1 blocker,Menin MLL FP FL,ClpP mod,gsp agonist
CCc1ccc(S(=O)(=O)c2nnn3c2nc(Nc2ccc(C)c(Cl)c2)c2sccc23)cc1,.,-0.2,1,.,-17%,.
O=C(O)Cn1c(=O)c(-c2ccccc2)nc2ccccc21,-6%,-0.9,-1,-4.9,.,1%
C(=N\n1cnnc1)/c1ccc(N2CCOCC2)s1,-16%,-0.2,-12,1.8,-2.2%,-37%[inhibitor]
CCOC(=O)c1nn(-c2ccccc2)c2nc(-c3ccc(OC)cc3)c(C#N)c(=O)n12,-12%,2.4,13,8.5,-7.8%,11%
Cc1cccc(C)c1N(Cc1ccccc1F)S(C)(=O)=O,7%,0.0,-23,0.1,.,26%[15.4 µM]
COc1ccc(CCNC(=O)c2cc(-c3ccccn3)nc3ccccc23)cc1,-24%,1.1,24,.,-1.4%,-2%
CC(C)c1ccc(NC2CCCN(C(=O)CCN3CCCO3)C2)cc1 (stereo unspecified),1%,0.1,35,.,-0.5%,?
COc1ccccc1N1CCN(/N=C(\C)c2ccc(O)cc2)CC1,3%,-0.3,-4,-5.0,1.4%,-25%
O=C(Nc1ncccc1O)c1ccc(Cl)c(S(=O)(=O)N2CCCCCC2)c1,-7%,-0.3,3,.,-8.5%,1%
COc1ccc(NC(=O)N2CCc3ccccc3C2)cc1,3%,0.3,-6,-1.1,-2.6%,2%
COc1ccc(Nc2nc3ccccc3nc2NS(=O)(=O)c2cccs2)cc1,?,-1.1,3,1.7,-4.7%,-4%
Cn1c(Sc2ccc(C(F)(F)F)cc2[N+](=O)[O-])nnc1-c1ccccc1,-5%,0.2,-12,-2.9,-1.6%,-55%
Cc1nc2ccccc2c(=O)n1CCCn1ccnc1,17%,0.1,11,5.3,0.3%,-2%
CC1CCc2c(sc(NS(=O)(=O)c3ccccc3)c2C(=O)OC(C)C)C1 (stereo unspecified),-15%,-0.2,-7,9.9,2.4%,-5%[15.4 µM]
O=C1CCc2cc(S(=O)(=O)Nc3ccc(F)cc3)ccc2N1,4%,0.0,28,.,-3.9%,-3%
O=C(Nc1ccccc1)N(Cc1ccccc1)Cc1ccccc1,-10%,0.4,9,3.2,-0.3%,-33%

Single entries from the entries so far:
In Menin MLL FP FL, `CCOC(=O)c1nn(-c2ccccc2)c2nc(-c3ccc(OC)cc3)c(C#N)c(=O)n12` shows 8.5
In gsp antag, `CC(C)c1ccc(NC2CCCN(C(=O)CCN3CCCO3)C2)cc1` (stereo unspecified) shows 1%
In TRPML1 agonist, `CC1CCc2c(sc(NS(=O)(=O)c3ccccc3)c2C(=O)OC(C)C)C1` (stereo unspecified) shows -0.2

The results go on:
Structure,gsp antag,TRPML1 agonist,TRPML1 blocker,Menin MLL FP FL,ClpP mod,gsp agonist
COC(=O)c1ccc(COc2ccccc2/C=N/NC(N)=O)o1,0%,1.1,19,3.8,.,6%[15.4 µM]
CN1CCN(C(=O)/C=C/c2ccc(Cl)c(Cl)c2)CC1,8%,0.9,20,-1.6,-0.3%,-21%
CCOc1ccc(-n2c(SCC(=O)Nc3nccs3)nnc2-c2ccoc2C)cc1,?,3.4,-12,1.3,.,8%[15.4 µM]
Cc1ccc(NC(=O)C2CCCN(S(=O)(=O)c3c(C)n[nH]c3C)C2)cc1Cl (stereo unspecified),.,2.0,6,.,-0.6%,.
O=C(/C=C/c1ccccc1)NC(=S)Nc1cccnc1,-6%,-0.3,-11,-1.6,0.0%,-27%
O=C(c1ccc(Cl)cc1)N1CCC(c2nc3ccccc3o2)CC1,.,4.2,21,.,-1.2%,.

Random excerpt: 7 records from the list
Structure,gsp antag,TRPML1 agonist,TRPML1 blocker,Menin MLL FP FL,ClpP mod,gsp agonist
O=C(Nc1ncccc1O)c1ccc(Cl)c(S(=O)(=O)N2CCCCCC2)c1,-7%,-0.3,3,.,-8.5%,1%
CCOC(=O)c1nn(-c2ccccc2)c2nc(-c3ccc(OC)cc3)c(C#N)c(=O)n12,-12%,2.4,13,8.5,-7.8%,11%
COc1ccc(NC(=O)N2CCc3ccccc3C2)cc1,3%,0.3,-6,-1.1,-2.6%,2%
COc1ccccc1N1CCN(/N=C(\C)c2ccc(O)cc2)CC1,3%,-0.3,-4,-5.0,1.4%,-25%
COc1ccc(Nc2nc3ccccc3nc2NS(=O)(=O)c2cccs2)cc1,?,-1.1,3,1.7,-4.7%,-4%
Cc1cccc(C)c1N(Cc1ccccc1F)S(C)(=O)=O,7%,0.0,-23,0.1,.,26%[15.4 µM]
Cn1c(Sc2ccc(C(F)(F)F)cc2[N+](=O)[O-])nnc1-c1ccccc1,-5%,0.2,-12,-2.9,-1.6%,-55%

Ordered by length of the SMILES (rising): three of the compounds above
Structure,gsp antag,TRPML1 agonist,TRPML1 blocker,Menin MLL FP FL,ClpP mod,gsp agonist
CN1CCN(C(=O)/C=C/c2ccc(Cl)c(Cl)c2)CC1,8%,0.9,20,-1.6,-0.3%,-21%
COC(=O)c1ccc(COc2ccccc2/C=N/NC(N)=O)o1,0%,1.1,19,3.8,.,6%[15.4 µM]
O=C(c1ccc(Cl)cc1)N1CCC(c2nc3ccccc3o2)CC1,.,4.2,21,.,-1.2%,.
